BJeLR viability: BJeLR cell viability reduction; viability loss activity score, % (no concentration beside the values); AID 2275; BJeLR fibroblasts viability, CellTiterGlo ATP luminescence, 48 h; HRASV12, hTERT and SV40 LT/ST transformed; 0.64% of 30,000 active; in the data active = viability loss activity score above about 50%; about a fifth of its hits are not listed in these tables;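 note: higher score means fewer live cells and less ATP luminescence; stock transfer was 50 or 100 nL into about 30 µL; 0% = vehicle wells and 100% = a reference killing control; one replicate is shown; the record names a cut of 85%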
A1 inh: inhibitors of A1 | MEF A1-2A-BIM cells, caspase-Glo luminescence, 3 h; percent of clofoctol signal, DMSO as zero | caspase activation, % (concentration not given with the values) | 0.51% of 21,000 active | AID 2241;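 active = most replicate scores above 10, or exactly half above 10 with mean activity above 10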;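 note: effector caspase 3 and 7 activity cleaving a DEVD luciferin substrate; 50 nL library stock added to about 30 µL; numbers are from one replicate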
Active calls of the source: *; . = no result given. This is a subset; rates above refer to the full screens.

Fields – BJeLR viability	A1 inh
> C[C@@H]1CN([C@@H](C)CO)C(=O)c2cc(NS(=O)(=O)c3ccc(Cl)cc3)ccc2O[C@@H]1CN(C)C(=O)Nc1ccc(C(F)(F)F)cc1
→ 2.6	1.2
> COc1ccc(S(=O)(=O)N(C)C[C@H]2Oc3c(NS(=O)(=O)c4ccccc4)cccc3C(=O)N([C@H](C)CO)C[C@@H]2C)cc1
→ -1.6	.
> COc1cc(S(C)=O)ccc1-c1nc2ncccc2[nH]1 (stereo not given)
→ .	1.0
> C[C@H](CO)N1C[C@H](C)[C@@H](CN(C)S(=O)(=O)c2ccccc2)Oc2c(NC(=O)Nc3ccccc3)cccc2C1=O
→ -1.4	.
> C[C@H]1CN([C@@H](C)CO)C(=O)c2cccc(NS(=O)(=O)c3ccc(F)cc3)c2O[C@@H]1CN(C)C(=O)Nc1ccc2c(c1)OCO2
→ -3.1	.
> COc1ccc(-[n+]2cc(=O)o[nH]2)cc1
→ -3.9	-0.8
> O=C(/C=C/c1ccco1)N(Cc1ccccc1)c1ccccn1
→ 2.9	0.0
> O=c1c2cnn(-c3ccccc3)c2ncn1/N=C/c1ccc(Cl)cc1
→ -6.5	0.0
> Cn1cccc1/C=C1\CCc2ccccc2C1=O
→ 73*	.
> C[C@@H]1CN([C@@H](C)CO)C(=O)c2cccc(NC(=O)c3ccc(-c4nccs4)cc3)c2O[C@@H]1CN(C)C(=O)Nc1ccc(F)cc1
→ -4.6	.
> O=c1cc(Oc2ccc(O)cc2)oc2cc(O[C@@H]3O[C@H](CO[C@@H]4O[C@H](CO)[C@@H](O)[C@H](O)[C@H]4O)[C@@H](O)[C@H](O)[C@H]3O)cc(O)c12
→ -2.3	-0.7
> Cc1ccc(C2=NN3C(=O)c4ccccc4C3C2)cc1 (stereo not given)
→ -1.0	-1.9
> O=C(O)c1cc2ccc3cccc4ccc(c1)c2c34
→ 9.1	-1.9
> O=C(O)c1ccc(NS(=O)(=O)c2cc3c4c(cccc4c2)C(=O)NC3=O)cc1
→ -1.5	0.9
> C[C@@H]1CN([C@@H](C)CO)C(=O)c2cccc(NC(=O)c3ccc(-c4nccs4)cc3)c2O[C@H]1CN(C)C(=O)NC1CCCCC1
→ -2.6	.
> Cc1noc(C)c1S(=O)(=O)Nc1cccc2c1O[C@H](CN(C)Cc1ccc3c(c1)OCO3)[C@H](C)CN([C@@H](C)CO)C2=O
→ 0.3	.
> Cc1nc(CCNC(=O)Cc2ccccc2)cs1
→ -4.5	0.1
> C[C@H](CO)N1C[C@H](C)[C@H](CN(C)S(=O)(=O)c2cccs2)Oc2ccc(NC(=O)CCC(F)(F)F)cc2C1=O
→ 0.3	0.6
> CC(C)NC(=O)Nc1ccc2c(c1)C(=O)N([C@H](C)CO)C[C@@H](C)[C@H](CN(C)S(=O)(=O)c1ccc(F)cc1)O2
→ 3.3	0.5
> COc1ccc(CN(C)C[C@H]2Oc3ccc(NC(=O)NC(C)C)cc3C(=O)N([C@@H](C)CO)C[C@H]2C)cc1
→ -2.7	0.8
> C[C@@H]1CN([C@@H](C)CO)C(=O)c2cccc(NC(=O)c3nc4ccccc4s3)c2O[C@@H]1CN(C)S(=O)(=O)c1ccc(Cl)cc1
→ -5.8	.
> C=C1C(=O)O[C@@H]2/C=C(/CO)CC/C=C(/C)C[C@H](OC(=O)C(C)CO)[C@@H]12 (stereo not given in full)
→ -1.6	-1.0
> CCC(C)NC(=O)c1ccc2nc(-c3cccs3)c(-c3cccs3)nc2c1 (stereo not given)
→ 4.0	0.3
> C[C@H]1CN([C@@H](C)CO)C(=O)c2cccc(NS(=O)(=O)c3ccc(F)cc3)c2O[C@H]1CN(C)Cc1ccncc1
→ -3.9	.
> N=c1c(S(=O)(=O)c2ccccc2)cc2c(=O)n3ccccc3nc2n1Cc1ccco1
→ -10	.
> C[C@H](CO)N1C[C@H](C)[C@H](CN(C)C(=O)NC2CCCCC2)Oc2ccc(NS(=O)(=O)c3cn(C)cn3)cc2C1=O
→ -3.9	-0.4
> COc1ccc(NC(=O)Nc2cccc3c2O[C@@H](CN(C)C(=O)NC(C)C)[C@H](C)CN([C@H](C)CO)C3=O)cc1
→ -0.3	.
> Clc1ccc(-c2cnc3n2CCC3)cc1Cl
→ 9.7	0.1
> CC(C)(C)c1ccc(O)c(C(=O)Oc2ccccc2)c1
→ 2.1	-2.4
> C[C@H]1CN([C@@H](C)CO)C(=O)c2cccc(NS(=O)(=O)c3ccccc3)c2O[C@@H]1CN(C)Cc1ccncc1
→ 3.8	.

Some of the entries above in a different format.
SMILES: C[C@@H]1CN([C@@H](C)CO)C(=O)c2cc(NS(=O)(=O)c3ccc(Cl)cc3)ccc2O[C@@H]1CN(C)C(=O)Nc1ccc(C(F)(F)F)cc1
  BJeLR viability = 2.6	A1 inh = 1.2
SMILES: COc1ccc(S(=O)(=O)N(C)C[C@H]2Oc3c(NS(=O)(=O)c4ccccc4)cccc3C(=O)N([C@H](C)CO)C[C@@H]2C)cc1
  BJeLR viability = -1.6	A1 inh = .

New compounds follow.
Fields – BJeLR viability	A1 inh
> O=C(Nc1cccc(NC(=O)C2CC2)c1)C1CC1
→ -3.8	0.7
> CC1CCCCN1S(=O)(=O)c1ccc2c(c1)oc(=O)n2C (stereo not given)
→ 11	.
> Cn1c(=NC(=O)c2cc(-c3ccccc3)nc3ccccc23)sc2cc(S(C)(=O)=O)ccc21
→ 6.2	.
> Cc1nn(CC(=O)NCc2ccc3c(c2)OCO3)c(=O)c2c1sc1ccccc12
→ 5.2	-0.1
> C[C@H](CO)N1C[C@H](C)[C@@H](CN(C)C(=O)Nc2ccc3c(c2)OCO3)Oc2c(NC(=O)c3ccncc3)cccc2C1=O
→ -2.5	.
> CC1(C)O[C@@H]2[C@H](O1)[C@@H](CO)O[C@H]2n1cnc2c(N)ncnc21
→ -4.7	0.3
> CC(C)CN(CC(C)C)S(=O)(=O)c1ccc(Br)s1
→ 2.6	.
> CNC[C@H]1Oc2c(NC(=O)Nc3c(C)noc3C)cccc2C(=O)N([C@@H](C)CO)C[C@@H]1C
→ -1.1	.
> C=C(C)C(=O)O[C@H]1CC(=C)C2C[C@H](O)[C@](O)(CO)C2[C@H]2OC(=O)C(=C)[C@H]12 (stereo not given in full)
→ -11	0.4
> CC(C)NC(=O)Nc1cccc2c1O[C@H](CN(C)C(=O)Nc1ccc(C(F)(F)F)cc1)[C@H](C)CN([C@H](C)CO)C2=O
→ 1.5	.
> O=C(O)c1ccccc1C(=O)c1ccc(-c2ccccc2)cc1
→ 1.4	-0.1
> COc1ccc(S(=O)(=O)Nc2ccc3c(c2)C(=O)N([C@H](C)CO)C[C@@H](C)[C@@H](CN(C)Cc2ccc(C(=O)O)cc2)O3)cc1
→ 3.7	0.5
> C[C@H]1CN([C@@H](C)CO)C(=O)c2cc(NS(C)(=O)=O)ccc2O[C@H]1CN(C)S(=O)(=O)c1cn(C)cn1
→ -4.7	0.2
> O=C(Nc1ccc(S(=O)(=O)N2CCCC2)cc1)c1ccc(COc2ccc3c(c2)CCC3)cc1
→ 5.5	0.0
> CC1CC(C)CN(CCCNC(=O)Cc2c(C(=O)O)n(C)c3ccccc23)C1 (stereo not given)
→ -1.5	.
> c1ccc2[nH]c(-c3cscn3)nc2c1
→ 59*	-5.5
> OCCNC(=S)c1ccccc1
→ 2.0	0.0
> C[C@@H]1O[C@@H](O[C@@H]2[C@@H](O)[C@H](OCCc3ccc(O)c(O)c3)O[C@H](CO[C@@H]3OC[C@](O)(CO)[C@H]3O)[C@H]2OC(=O)/C=C/c2ccc(O)c(O)c2)[C@H](O[C@@H]2OC[C@H](O)[C@H](O)[C@H]2O)[C@H](O)[C@H]1O
→ -2.2	-0.2
> O=C(O)CNC(=S)N(Cc1ccccc1)Cc1cccnc1
→ -0.8	0.6
> C[C@@H]1CN([C@H](C)CO)C(=O)c2cccc(NC(=O)c3ccncc3)c2O[C@@H]1CN(C)C(=O)NC1CCCCC1
→ -3.9	.
> COc1ccc(S(=O)(=O)N(C)C[C@H]2Oc3ccc(NC(=O)Cn4cnnn4)cc3C(=O)N([C@H](C)CO)C[C@@H]2C)cc1
→ -3.1	0.4
> C[C@H](CO)N1C[C@H](C)[C@@H](CN(C)S(=O)(=O)c2ccccc2)Oc2ccc(NC(=O)CCCN(C)C)cc2C1=O
→ -4.4	1.0
> C=CC[n+]1ccccc1/C=N/O
→ -2.1	-0.3
> O=C(CN1C(=O)c2ccccc2C1=O)c1ccc(F)cc1
→ 12	0.6
> COc1ccc(NC(=O)CC2C(=O)NCCN2C(=O)c2ccc(C(C)(C)C)cc2)cc1 (stereo not given)
→ -2.0	0.0
> C=CCNC(=O)CCN1N=C(c2ccc(C)cc2)CCC1=O
→ 2.3	0.8
> C=CCNC(=S)C(=O)Nc1ccccc1
→ -1.5	-5.5
> O=C(NC1CCCCC1)NC12CC3CC(CC(C3)C1)C2
→ -0.1	0.8
> CC(C)(Oc1ccc(C2CC2(Cl)Cl)cc1)C(=O)O (stereo not given)
→ -1.3	-0.9
> CCN(C(=O)Cn1c(=O)n2nc(CCn3nc(C)cc3C)nc2c2ccccc21)c1cccc(C)c1
→ -3.6	0.1
> COc1ccc(S(=O)(=O)N(C)C[C@H]2Oc3ccc(NC(=O)Nc4ccccc4)cc3C(=O)N([C@H](C)CO)C[C@H]2C)cc1
→ -3.7	-0.2
> O=C(NCc1ccccc1)C(=O)C1C(=O)Nc2ccccc21 (stereo not given)
→ 2.3	1.9
> COc1ccc(NC(=O)Nc2ccc3c(c2)C(=O)N([C@H](C)CO)C[C@@H](C)[C@@H](CN(C)S(=O)(=O)c2ccccc2)O3)cc1
→ 7.2	0.6
> Cc1cc(Cl)ccc1OCCCC(=O)Nc1ccc(S(=O)(=O)Nc2ncccn2)cc1
→ 0.7	0.4
> O=C(CSc1nnc(-c2cccnc2)n1-c1ccccc1)NCc1ccccc1
→ -4.5	-0.6
> O=C(CN1C(=O)C2C3C=CC(C3)C2C1=O)Nc1nnc(C(F)(F)F)s1 (stereo not given)
→ -1.2	0.1
> C[C@@H]1CN([C@@H](C)CO)C(=O)c2cccc(NC(=O)C3CCCCC3)c2O[C@H]1CN(C)C(=O)Nc1ccc2c(c1)OCO2
→ 13	.
> COc1ccc(NC(=O)N(C)C[C@H]2Oc3ccc(NC(=O)Nc4ccccc4)cc3C(=O)N([C@H](C)CO)C[C@H]2C)cc1
→ -2.6	0.7
> Cc1ccc(S(=O)(=O)Nc2cccc3c2O[C@H](CN(C)CC2CC2)[C@@H](C)CN([C@@H](C)CO)C3=O)cc1
→ -13	.
> C[C@@H]1CN([C@H](C)CO)C(=O)c2cc(NS(=O)(=O)c3ccc(F)cc3)ccc2O[C@@H]1CN(C)CC1CC1
→ -1.9	0.0
> CN1/C(=C/C(=S)C(C)(C)C)Sc2ccccc21
→ 0.7	-0.3
> Cc1ccc2c(N3CC4CCC(CC4)C3)cc(C(F)(F)F)nc2c1
→ -5.4	-1.8
> C[C@H]1CN([C@@H](C)CO)C(=O)c2cccc(NS(=O)(=O)c3ccc(F)cc3)c2O[C@H]1CN(C)Cc1ccccc1
→ -0.6	.
> O=C(c1ccc2c(c1)sc1nc(-c3ccccc3)cn12)N1CCCC1
→ 13	-5.0
> CC(C)(C)c1ccc(/C(N)=N/O)cc1
→ -6.1	-0.6
> COc1ccc(C2=NOC(C(=O)N(C)Cc3ccccc3)C2)cc1 (stereo not given)
→ 0.0	.
> CCC1(CC)Cc2ccccc2C(CC(=O)N2CCOCC2)=N1
→ -3.2	-0.7
> Cc1ccc(S(=O)(=O)N(C)C[C@@H]2Oc3ccc(NS(=O)(=O)c4ccc(Cl)cc4)cc3C(=O)N([C@@H](C)CO)C[C@H]2C)cc1
→ -6.9	0.3
> C[C@@H]1CN([C@H](C)CO)C(=O)c2cccc(N(C)C)c2O[C@@H]1CN(C)Cc1ccc(Oc2ccccc2)cc1
→ 0.3	.
> O=C(NCCSc1c(-c2ccc(Br)cc2)[nH]c2ccccc12)c1ccncc1
→ -5.5	.
> Cc1ccc(S(=O)(=O)N(C)C[C@H]2Oc3c(NC(=O)c4ccncc4)cccc3C(=O)N([C@@H](C)CO)C[C@@H]2C)cc1
→ 2.1	.
> C[C@@H]1CN([C@@H](C)CO)C(=O)c2cc(NC(=O)Cc3ccccc3)ccc2O[C@H]1CN(C)C(=O)NC1CCCCC1
→ 4.4	0.5
> O=C(NC1Cc2ccccc2C1)c1ccc(Oc2cc(Cl)cc(Cl)c2)o1
→ -2.1	1.0
> c1ccc(COc2ccc(NCCc3ccncc3)cc2)cc1
→ 7.7	-0.5
> COC(CN(C)C(=O)c1cc2c(C)nc3ccccc3c2o1)OC
→ 1.4	.
> COC(=O)C1=C(C)N(c2ccc(C)cc2)/C(=C/c2ccc(OC)cc2)C1=O
→ -9.2	.
> C[C@H](CO)N1C[C@H](C)[C@H](CN(C)CC2CCCCC2)Oc2ccc(NC(=O)C3CC3)cc2C1=O
→ 1.2	-0.2
> C[C@H](CO)N1C[C@H](C)[C@H](CN(C)C(=O)Nc2cccc3ccccc23)Oc2c(NC(=O)c3nc4ccccc4s3)cccc2C1=O
→ -0.1	.

Profiles as entered above:
C[C@H](CO)N1C[C@H](C)[C@H](CN(C)C(=O)Nc2cccc3ccccc23)Oc2c(NC(=O)c3nc4ccccc4s3)cccc2C1=O across the screens: BJeLR viability: -0.1; A1 inh: .
Cc1cc(Cl)ccc1OCCCC(=O)Nc1ccc(S(=O)(=O)Nc2ncccn2)cc1 across the screens: BJeLR viability: 0.7; A1 inh: 0.4
CCC1(CC)Cc2ccccc2C(CC(=O)N2CCOCC2)=N1 across the screens: BJeLR viability: -3.2; A1 inh: -0.7
